AF4-AF9 inh: MLL-AF4/AF9 protein interaction inhibition | AlphaScreen, biotin-AF4 peptide binding to FLAG-AF9 | P42568 | inhibition, % at 10 µM | 350,000 tested, 0.47% active;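 active = every replicate reaching a set inhibition limit, whatever the replicate mean, cut at about 25% in these data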;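 note: 0% = plate neutral control median and 100% = total signal loss; the record names both 10 and 1 µM as test concentration; the first replicate is given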
Target sequence (P42568 whole entry, looked up): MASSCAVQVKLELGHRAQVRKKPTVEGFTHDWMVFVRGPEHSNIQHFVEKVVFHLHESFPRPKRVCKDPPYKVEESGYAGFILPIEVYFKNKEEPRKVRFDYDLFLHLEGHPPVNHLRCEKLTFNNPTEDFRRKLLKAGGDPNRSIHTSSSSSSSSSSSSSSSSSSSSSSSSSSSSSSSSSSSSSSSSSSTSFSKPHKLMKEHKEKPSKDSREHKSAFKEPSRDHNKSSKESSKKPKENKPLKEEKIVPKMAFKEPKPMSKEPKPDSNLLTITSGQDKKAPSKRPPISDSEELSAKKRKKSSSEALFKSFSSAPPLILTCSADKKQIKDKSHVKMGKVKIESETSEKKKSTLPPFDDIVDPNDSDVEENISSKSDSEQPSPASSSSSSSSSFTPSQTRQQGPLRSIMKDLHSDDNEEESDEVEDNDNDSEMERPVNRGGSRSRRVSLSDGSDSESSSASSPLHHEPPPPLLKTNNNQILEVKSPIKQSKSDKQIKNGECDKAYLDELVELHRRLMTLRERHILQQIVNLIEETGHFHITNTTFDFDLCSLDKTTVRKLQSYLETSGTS
Ecoli rRNA inh: inhibits bacterial ribosomal RNA function over humanized ribosomes; E. coli WT GFP vs humanized-ribosome RFP mutants, fluorescence, 24 h; active compounds read low; DMSO median 0, no signal -100; GFP signal change (wild-type ribosome), % (no concentration beside the values); 350,000 tested, 1.6% active; AID 720706;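 active = significant combined selectivity score with lowered wild-type GFP, culture density cut under 30%, mutant RFP and density less affected; inactive = any of these conditions unmet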; note: one replicate is shown; some compounds called inactive have numbers as strong as hits
Ecoli rRNA inh OD600: recorded beside Ecoli rRNA inh, whose call it bears; OD600 change, %; measured here: OD600 growth;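 optical density of the mix in the first replicate; 0 = DMSO median and -100 = no signal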
Ecoli rRNA inh RFP: further read-out of Ecoli rRNA inh, marked with its call; RFP signal change, %; measured here: RFP humanized mutant strains;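 first replicate; 0 = DMSO median and -100 = no signal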
* hit, by the source's call; & = joins results of further samples. Not all compounds are listed; the hit share may differ from the screen's.

AF4-AF9 inh	Ecoli rRNA inh	Ecoli rRNA inh OD600	Ecoli rRNA inh RFP	structure
0.9	-1	-2	-1.8	C[C@H]1CN([C@@H](C)CO)C(=O)c2cccc(NC(=O)NC3CCCCC3)c2O[C@H]1CN(C)S(C)(=O)=O
8.5&-1.1	6&0	7&-1	-2.8&-1.9	COc1ccccc1-c1ccc(C2[C@H]3CNC[C@@H]2N3Cc2nccs2)cc1 (some centres not stated)
1.3	1	7	-4.7	O=C(C[C@@H]1C[C@@H]2c3cc(NC(=O)NC4CCCC4)ccc3O[C@@H]2[C@H](CO)O1)NCC1CC1
-2.6	2	13	-0.3	CCC(=O)N(C)C[C@@H]1Oc2ncc(-c3ccc(F)cc3)cc2C(=O)N([C@H](C)CO)C[C@H]1C
-1.1	0	16	0.5	C[C@@H]1CN([C@H](C)CO)C(=O)Cc2cc(NC(=O)Cc3cn(C)c4ccccc34)ccc2O[C@H]1CN(C)Cc1ccc(C(=O)O)cc1
0.6	-1	0	1.0	CCC(=O)Nc1ccc2c(c1)OC[C@@H](C)N(CCC(F)(F)F)C[C@@H](C)[C@@H](OC)CN(C)C2=O
2.1	2	0	-4.8	C[C@H]1CN([C@@H](C)CO)C(=O)c2cccc(NS(C)(=O)=O)c2O[C@@H]1CN(C)Cc1ccc2c(c1)OCO2
3.9	1	-11	5.7	C[C@H]1CN([C@@H](C)CO)C(=O)Cc2cc(NC(=O)Nc3ccc(F)cc3)ccc2O[C@H]1CN(C)S(=O)(=O)c1ccc(F)cc1
-2.0	2	17	-2.9	C[C@@H]1CN([C@@H](C)CO)C(=O)c2cc(-c3ccccc3)cnc2O[C@@H]1CN(C)Cc1cccnc1
-4.6	-10	-2	23	Cc1ccccc1-c1ccc([C@@H]2[C@H]3CN(C(=O)Nc4cccc(F)c4)CCCCN3[C@H]2CO)cc1
-2.6	0	-4	0.1	C[C@@H](NC(=O)C[C@@H]1C[C@H]2c3cc(NC(=O)NC4CCCC4)ccc3O[C@H]2[C@@H](CO)O1)c1ccccc1
8.0	-5	-10	1.0	C[C@H]1CN([C@@H](C)CO)C(=O)c2cccc(NC(=O)Nc3cccc4ccccc34)c2O[C@H]1CN(C)Cc1ccc2c(c1)OCO2
-1.8	2	-4	-2.6	C[C@@H]1CCCCO[C@@H](CN(C)C(=O)Nc2cccc3ccccc23)[C@@H](C)CN([C@H](C)CO)C(=O)c2cc(NS(=O)(=O)c3ccc(F)cc3)ccc2O1
-14	6	5	-0.8	C[C@@H]1CN([C@H](C)CO)C(=O)c2cc(NS(=O)(=O)c3cn(C)cn3)ccc2O[C@@H](C)CCCCO[C@H]1CN(C)C
-0.9	1	-6	-0.3	CC=Cc1ccc2n(c1=O)C[C@@H]1[C@@H](CO)[C@H](C(=O)NCc3cccc(F)c3)[C@H]2N1S(C)(=O)=O (mixture of isomers)
-1.2	0	2	-2.3	Cc1noc(C)c1S(=O)(=O)N(C)C[C@@H]1OCCCC[C@@H](C)Oc2ccc(NC(=O)Nc3cccc4ccccc34)cc2C(=O)N([C@H](C)CO)C[C@@H]1C
2.9	-5	-10	-2.9	C(=C\c1ccccc1)/CN1CCN(C(c2cc3ccccc3o2)c2nnnn2Cc2ccccc2)CC1 (configuration not stated)
-0.7	2	1	-2.0	O=C(Cc1cccc(NC(=O)C2CCCN(C(=O)c3ccccc3)C2)c1)Nc1cccc(C(=O)N2CCCCC2)c1 (configuration not stated)
5.2	-8	-3	3.5	CO[C@@H]1CN(C)C(=O)c2ccc(NC(C)=O)cc2OC[C@H](C)N(Cc2cc(F)ccc2F)C[C@H]1C
2.1	-1	-7	0.7	Cc1noc(C)c1S(=O)(=O)Nc1ccc2c(c1)C(=O)N([C@@H](C)CO)C[C@H](C)[C@H](CN(C)S(=O)(=O)c1ccccc1)OCCCC[C@H](C)O2
-1.2	-1	-1	-2.3	N#C[C@H]1[C@H](c2ccccc2-c2cccc(F)c2)[C@H](CO)N1C(=O)C1CCC1
-1.0	0	0	-0.7	O=C(NCC[C@H]1CC[C@@H](NS(=O)(=O)c2cccc(F)c2)[C@@H](CO)O1)C1CCC1
-1.2	7	13	-1.3	O=C(O)C[C@H]1C=C[C@H](NC(=O)Nc2ccccc2)[C@@H](CO)O1
-3.2	-1	0	4.2	O=C(CC1CC1)N1[C@@H](CO)[C@@H](c2ccccc2)C12CN(S(=O)(=O)c1ccccc1)C2

Compound profiles, from the list above. Values in the order: AF4-AF9 inh | Ecoli rRNA inh | Ecoli rRNA inh OD600 | Ecoli rRNA inh RFP
Entry for `O=C(O)C[C@H]1C=C[C@H](NC(=O)Nc2ccccc2)[C@@H](CO)O1` = -1.2 | 7 | 13 | -1.3
Entry for `CO[C@@H]1CN(C)C(=O)c2ccc(NC(C)=O)cc2OC[C@H](C)N(Cc2cc(F)ccc2F)C[C@H]1C` = 5.2 | -8 | -3 | 3.5

Some of the entries above, reformatted:
mol,AF4-AF9 inh,Ecoli rRNA inh,Ecoli rRNA inh OD600,Ecoli rRNA inh RFP
Cc1noc(C)c1S(=O)(=O)Nc1ccc2c(c1)C(=O)N([C@@H](C)CO)C[C@H](C)[C@H](CN(C)S(=O)(=O)c1ccccc1)OCCCC[C@H](C)O2,2.1,-1,-7,0.7
N#C[C@H]1[C@H](c2ccccc2-c2cccc(F)c2)[C@H](CO)N1C(=O)C1CCC1,-1.2,-1,-1,-2.3
O=C(NCC[C@H]1CC[C@@H](NS(=O)(=O)c2cccc(F)c2)[C@@H](CO)O1)C1CCC1,-1.0,0,0,-0.7
O=C(O)C[C@H]1C=C[C@H](NC(=O)Nc2ccccc2)[C@@H](CO)O1,-1.2,7,13,-1.3

(more compounds)
AF4-AF9 inh	Ecoli rRNA inh	Ecoli rRNA inh OD600	Ecoli rRNA inh RFP	structure
0.7	4	2	-0.7	C[C@H]1CN([C@@H](C)CO)C(=O)c2cc(NS(=O)(=O)c3cn(C)cn3)ccc2O[C@H]1CN(C)Cc1ccccc1
-1.6	-18	-62	16	O=C(c1ccc(F)cc1)N1CC(=O)N2[C@H](CO)[C@H](c3ccc(C#Cc4ccc(F)cc4)cc3)[C@@H]2C1
1.0	-1	7	-2.3	C[C@@H]1CN([C@@H](C)CO)C(=O)Cc2cc(NC(=O)Cc3ccccc3)ccc2O[C@H]1CN(C)C(=O)Nc1ccc2c(c1)OCO2
14	5	-16	3.3	C[C@@H]1CN([C@H](C)CO)C(=O)c2cc(NC(=O)Nc3ccccc3)ccc2O[C@@H](C)CCCCO[C@H]1CN(C)Cc1ccccc1
4.0	-12	-17	0.8	COc1ccc(NC(=O)C2(C)CCN2Cc2cccc(OC)c2F)cc1OC (configuration not stated)
-1.0	0	0	-1.9	C[C@H](CO)N1C[C@H](C)[C@@H](CN(C)CC2CCCCC2)Oc2c(NS(C)(=O)=O)cccc2C1=O
-3.5	-6	-15	0.1	Cc1ccccc1-c1cnc2c(c1)C(=O)N([C@H](C)CO)C[C@@H](C)[C@H](CN(C)C(=O)c1ccc(F)cc1)O2
3.1	8	9	-1.6	CCCCN(C(=O)CCOc1ccc(OCC)cc1)c1c(N)n(Cc2ccccc2)c(=O)[nH]c1=O
-1.5	2	-1	0.1	C[C@H]1CN([C@@H](C)CO)C(=O)c2cc(NC(=O)Nc3ccc(F)cc3)ccc2O[C@@H]1CN(C)C(=O)Nc1cccc2ccccc12
4.2	-2	-5	-0.1	COc1ccccc1S(=O)(=O)N(C)C[C@@H]1OCc2ccccc2-c2c(n(C)c3ccccc23)C(=O)N([C@@H](C)CO)C[C@@H]1C
-3.0	-62	-78	-20	CCCNC(=O)C[C@@H]1CC[C@@H]2[C@H](COC[C@@H](O)CN2C(=O)Nc2cccc(Cl)c2)O1
-0.9	-2	2	-2.9	C[C@H]1CN([C@@H](C)CO)C(=O)c2cccc(NC(=O)Nc3ccccc3)c2O[C@@H]1CN(C)C(=O)Nc1ccc(F)cc1

2 compounds picked at random from those above, as already listed:
AF4-AF9 inh	Ecoli rRNA inh	Ecoli rRNA inh OD600	Ecoli rRNA inh RFP	structure
2.9	-5	-10	-2.9	C(=C\c1ccccc1)/CN1CCN(C(c2cc3ccccc3o2)c2nnnn2Cc2ccccc2)CC1 (configuration not stated)
-0.9	1	-6	-0.3	CC=Cc1ccc2n(c1=O)C[C@@H]1[C@@H](CO)[C@H](C(=O)NCc3cccc(F)c3)[C@H]2N1S(C)(=O)=O (mixture of isomers)

The results go on:
AF4-AF9 inh	Ecoli rRNA inh	Ecoli rRNA inh OD600	Ecoli rRNA inh RFP	structure
-2.8	-15	-21	-2.0	CCOc1ccc(Cl)cc1-c1cc(C(=O)Nc2cc(OC)c(OC)c(OC)c2)[nH]n1
2.7	2	1	0.4	C[C@@H]1CN([C@H](C)CO)C(=O)c2cc(N(C)C)ccc2O[C@@H](C)CCCCO[C@@H]1CN(C)Cc1ccncc1
0.4	1	1	2.5	O=C(C[C@H]1CC[C@@H]2NC[C@H](O)COC[C@H]2O1)NCc1ccc(Oc2ccccc2)cc1
-0.3	13	-1	-3.3	COc1ccc2c3c(n(C)c2c1)[C@H](CO)N(CC1CCOCC1)CC31CCN(C(C)=O)CC1
3.5	1	0	-2.6	O=C(C1CCC1)N1CC2(C1)[C@H](c1ccccc1)[C@@H](CO)N2Cc1cccnc1
1.6	2	6	0.9	CO[C@@H]1CN(C)C(=O)c2cc(NC(=O)c3cnccn3)ccc2OC[C@@H](C)N(CCc2ccccc2)C[C@@H]1C
3.6	10	23	2.3	COc1ccc(C(O)c2ncc(-c3ccccc3F)[nH]2)cc1 (configuration not stated)
-0.4	-21	-50	15	O=C(C[C@@H]1CC[C@@H]2[C@H](COC[C@H](O)CN2C(=O)Nc2cccc(F)c2)O1)NCc1ccccc1Cl
-3.0	-1	-5	-0.1	C[C@H]1CN([C@@H](C)CO)C(=O)c2cc(NC(=O)C3CCCCC3)ccc2O[C@H]1CN(C)Cc1ccccc1
-1.2	0	-3	1.0	C[C@H](CO)N1C[C@H](C)[C@H](CN(C)Cc2ccncc2)Oc2c(NC(=O)Nc3cccc4ccccc34)cccc2C1=O
2.9	10	14	2.5	COc1cccc(-c2cc3nc(NCc4ccccc4F)n(C)c(=O)c3s2)c1
-0.1	8	-23	-3.9	O=C(Nc1nnc([C@@H]2C[C@H](O)[C@@H](CO)O2)s1)Nc1cccc2ccccc12
-2.9	-1	20	-5.3	CC(=O)N1CC(=O)N2[C@H](C1)[C@@H](c1ccc(-c3ccc(C#N)cc3)cc1)[C@@H]2CO
-1.1	-32	-35	-12	CCOC(=O)C1=CCN(S(=O)(=O)c2ccccc2F)C1c1cccc(Cl)c1 (configuration not stated)
1.8	2	2	-2.0	COCC#Cc1ccc([C@@H]2[C@@H](CO)N3CCCCN(Cc4cncnc4)C[C@H]23)cc1
-0.6	1	-2	-2.9	CO[C@H]1CN(C)C(=O)c2cc(NC(C)=O)ccc2OC[C@@H](C)N(CC2CC2)C[C@@H]1C
2.7	-4	-14	1.9	CC(C)CC#Cc1ccc2c(c1)O[C@H](CN(C)S(C)(=O)=O)[C@H](C)CN([C@H](C)CO)S2(=O)=O
2.3	0	-1	-2.8	COc1ccc(-c2cc(NC=O)c3ncc(-c4cc(OC)c(OC)c(OC)c4)n3c2)cc1
3.6	-11	-8	-1.2	Clc1ccccc1-c1cc2nc(NCc3ccco3)ccn2n1
2.3	2	2	1.5	C[C@H](CO)N1C[C@H](C)[C@@H](CN(C)S(C)(=O)=O)Oc2ccc(NC(=O)Cc3ccccc3)cc2CC1=O
0.5	13	28	0.2	O=C(O)Cn1nncc1-c1ccc(C(F)(F)F)cc1
3.6	-61	-81	-20	Cc1ccc(NC(=O)c2cc(-c3cc(Cl)ccc3C)n[nH]2)cc1NS(C)(=O)=O
3.7	-12	-22	-4.8	O=c1[nH]c(=S)[nH]c2c1C(c1ccc(F)cc1)OC(CCc1ccccc1)C2 (configuration not stated)
-1.4	2	-4	-1.2	C/C=C/c1ccc2c(c1)O[C@H](CN(C)C(=O)NCCC)[C@H](C)CN([C@H](C)CO)S2(=O)=O
2.0	6	3	1.6	COc1ccc(NC(=O)N(C)C[C@H]2OCCCC[C@H](C)Oc3ccc(NC(=O)NC4CCCCC4)cc3C(=O)N([C@@H](C)CO)C[C@H]2C)cc1
1.4	1	-2	-3.6	C[C@@H]1CCCCO[C@H](CN(C)C(=O)NC2CCCCC2)[C@@H](C)CN([C@H](C)CO)C(=O)c2cc(NC(=O)Cc3ccccc3)ccc2O1
-1.9	2	9	-3.1	COc1ccccc1-c1cnc2c(c1)C(=O)N([C@H](C)CO)C[C@@H](C)[C@H](CN(C)Cc1cccnc1)O2
-2.4	2	8	0.9	C[C@@H]1CCCCO[C@@H](CN(C)C(=O)C2CCCCC2)[C@H](C)CN([C@H](C)CO)C(=O)c2cc(NC(=O)Nc3cccc4ccccc34)ccc2O1
-7.3	-3	0	1.8	O=C(C1CCCCC1)N1CC2(C1)[C@@H](c1ccccc1)[C@@H](CO)N2CCC(F)(F)F
12&13	-60	-82	-13	COc1ccc(-c2ccc(C3[C@@H]4CN(Cc5cc(OC)cc(OC)c5)C[C@H]3N4)cc2)cc1 (some centres not stated)
0.2	0	-6	3.1	Cc1ccc(S(=O)(=O)N(C)C[C@@H]2Oc3ccc(NC(=O)c4ccncc4)cc3CC(=O)N([C@@H](C)CO)C[C@@H]2C)cc1
-5.7	8	5	0.4	CCCNC(=O)N1CCC2(CC1)CN(Cc1ccccn1)[C@H](CO)c1c2c2ccc(OC)cc2n1C

High-throughput results: PubChem BioAssay, Broad Institute
